Screening results deposited in PubChem by National Center for Advancing Translational Sciences (NCATS).
Rango release inh: prevents RanGTP from dissociating the Rango-importin beta complex; Biochemical FRET Rango-importin beta, RanGTP-induced dissociation; O95149+P62826; Potency, µM (series often up to 46.1 µM), without a hit: at the top dose activity change, negative = inhibition; hit rate 0.071% among 340,000; active means falling FRET ratio curve, often poorly fitted, with flat reads before Ran was added; inconclusive means other falling curves, or compound fluorescence or quenching; inactive means flat or rising ratio curve;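 note: potency is the fitted concentration of half-maximal effect; % of control where 0% means no effect; nearly all actives have a fitted effect of over 45% in size; -100% = wells without RanGTP and RCC1; the record marks most hits as doubtful in a second field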
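Compounds sat 5 min at room temperature with 0.1 uM Rango biosensor plus 0.25 uM importin beta, then FRET pre-read. RanGTP-RCC1 (0.6 uM Ran, 2mM GTP, 0.2 uM RCC1) added for 45 min, and the CFP/YFP post-read measured blocked complex dissociation.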
Rango complex inh: prevents formation of the Rango-importin beta complex. Q14974. Rango CFP/YFP FRET sensor + importin beta, 45 min. Potency, µM (titrated, usually from 92.2 µM), without a hit: at the top dose inhibition of complex formation. hit rate 0.031% among 340,000. AID 540263; active = rising FRET ratio curve, often small or poorly fitted; inconclusive = mostly compound fluorescence or quenching in the first reads; inactive = flat curves in all reads;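 note: potency is the fitted concentration of half-maximal effect; 0% = DMSO wells and 100% = buffer wells lacking importin beta; nearly all actives have a fitted effect of over 15% in size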
Target sequence (Q14974 whole entry, looked up): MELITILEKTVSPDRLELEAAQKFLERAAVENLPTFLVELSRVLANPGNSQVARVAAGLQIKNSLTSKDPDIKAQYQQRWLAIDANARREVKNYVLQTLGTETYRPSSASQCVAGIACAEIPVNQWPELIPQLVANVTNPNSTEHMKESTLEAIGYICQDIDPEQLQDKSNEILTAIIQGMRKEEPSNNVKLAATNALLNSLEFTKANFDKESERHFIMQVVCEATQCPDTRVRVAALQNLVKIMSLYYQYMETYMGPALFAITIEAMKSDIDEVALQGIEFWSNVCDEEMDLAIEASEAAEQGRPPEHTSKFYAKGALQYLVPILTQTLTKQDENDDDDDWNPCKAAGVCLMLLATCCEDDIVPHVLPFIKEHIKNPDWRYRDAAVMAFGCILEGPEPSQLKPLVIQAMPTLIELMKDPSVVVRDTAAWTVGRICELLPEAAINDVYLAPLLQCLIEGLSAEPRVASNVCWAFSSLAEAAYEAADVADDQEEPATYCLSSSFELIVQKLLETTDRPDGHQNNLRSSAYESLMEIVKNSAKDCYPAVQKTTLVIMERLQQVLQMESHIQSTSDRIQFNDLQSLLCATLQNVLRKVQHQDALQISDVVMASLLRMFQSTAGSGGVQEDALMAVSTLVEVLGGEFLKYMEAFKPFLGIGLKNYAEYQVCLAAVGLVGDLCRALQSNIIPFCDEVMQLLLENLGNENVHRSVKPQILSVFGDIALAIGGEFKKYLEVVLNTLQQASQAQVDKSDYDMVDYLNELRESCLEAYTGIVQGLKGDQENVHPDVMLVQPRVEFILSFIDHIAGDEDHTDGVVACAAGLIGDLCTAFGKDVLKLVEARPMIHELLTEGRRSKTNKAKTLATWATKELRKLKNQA
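FRET biosensor (snurportin 1 IBB flanked by EYFP and cerulean), 50 nM, with compound 5 min, then 0.125 microM importin beta in PBS, 1 mM DTT, 0.02% Tween-20, 0.1% BSA. CFP/YFP ratio read after 45 min at room temperature; pre-read flags interference.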
GLA inh pH 4.5: alpha-galactosidase A (human) inhibition, pH 4.5. purified enzyme, 4-MU-alpha-Gal fluorescence, pH 4.5. activity change, negative = inhibition, % at 105 µM. 230,000 tested, under 10 active; inconclusive = small, poorly fitted or top-dose-only inhibition, or a rising curve; inactive = flat fitted curve, though single readings scatter; no compound was filed as active;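 note: 0% = full activity with enzyme and -100% = basal without enzyme; dose as in the result columns while the protocol names 77 µM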
miR-21 FLuc: raises the signal of a miR-21 reporter; HeLa miR-21 FLuc reporter, luciferase, 48 h; Potency, µM (titrated, usually from 38.3 µM), inactives show at the highest dose reporter change, positive = more light; 340,000 tested, under 10 active; active = well fitted rising curve with a large enough effect; inconclusive = small, poorly fitted or top-dose-only effect; inactive = no such curve, though single readings can be large or run the other way;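 note: % of control where 0% means no effect; miR-21 action dims this reporter so a rising signal means less miR-21 action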
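Luminescence from a firefly luciferase reporter carrying a miR-21 binding site downstream, stably expressed under a CMV promoter in HeLa cells that make miR-21 endogenously, reports miRNA modulation after 48 h compound exposure up to approximately 40uM final.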
* marks the source's active call; other numbers are inactive results. Some of the compounds tested; the hit share may differ from the screen's.

`Cc1cccc2nc(-c3ccccc3)nc(N[C@@H](CO)c3ccccc3)c12` gave Rango release inh 7%, Rango complex inh 0.1%, GLA inh pH 4.5 5 and miR-21 FLuc 10%.
For CCOC(=O)c1c(C)n(C)c2ccc(OCC(O)CNC(CC)CO)cc12 (centres undefined) the results were Rango release inh 14%, Rango complex inh -0.4%, GLA inh pH 4.5 0 and miR-21 FLuc -9%.
For CC(C)c1ccc(OCC(=O)Nc2cccc(C(=O)Nc3ccccc3C(=O)O)c2)cc1 the results were Rango release inh 8%, Rango complex inh 0.5%, GLA inh pH 4.5 -7 and miR-21 FLuc 0%.
Screening Cc1ccc(NC(=O)c2ccc3c(c2)OCCO3)cc1S(=O)(=O)Nc1cccc(Cl)c1 returned Rango release inh 0%, Rango complex inh -0.5%, GLA inh pH 4.5 5 and miR-21 FLuc -16%.
Screening O=C(NNC(=O)c1sc2cccc(Cl)c2c1Cl)NC1CCCCC1 returned Rango release inh -5%, Rango complex inh -5.5%, GLA inh pH 4.5 4 and miR-21 FLuc -6%.
Cc1ccc(SCC(=O)NC(=O)c2ccccc2Br)c(C)c1 was read as Rango release inh 0% and Rango complex inh 5.7%.
`Cn1c(=O)c2c(nc(NC(Cc3ccccc3)C(=O)O)n2Cc2ccccc2)n(C)c1=O` (centres undefined) gave Rango release inh -15%, Rango complex inh inconclusive, GLA inh pH 4.5 -10 and miR-21 FLuc 0%.
Screening CC(C)(C)C(=O)NCCCc1ccccc1 returned Rango release inh 8%, Rango complex inh -2.9%, GLA inh pH 4.5 -4 and miR-21 FLuc 0%.
Screening COc1cc(-c2nnc(SCC(=O)N3CCCC3)o2)cc(OC)c1OC returned Rango release inh 3%, Rango complex inh -1.0%, GLA inh pH 4.5 -7 and miR-21 FLuc 1%.
For CSc1nnc(-c2ccc(S(=O)(=O)N3CCOCC3)cc2)n1CC1CCCO1 (centres undefined) the results were Rango release inh 3%, Rango complex inh 0.5%, GLA inh pH 4.5 4 and miR-21 FLuc -1%.
`CCOC(=O)c1sc(NC(=O)C(C)(C)C)cc1C` gave Rango release inh 19%, Rango complex inh -1.7%, GLA inh pH 4.5 -7 and miR-21 FLuc -52%.
COc1ccc2[nH]c3c(=O)n(N)c(C)nc3c2c1 was read as Rango release inh -4%, Rango complex inh -3.0%, GLA inh pH 4.5 30 and miR-21 FLuc -8%.
For CN(C)C(/C=C/Nc1cccc(Br)c1)=C(C#N)C#N the results were Rango release inh 14%, Rango complex inh -2.5%, GLA inh pH 4.5 4 and miR-21 FLuc -9%.
Cc1ccc(-c2cc3nc4c(c(=O)n3[nH]2)CCCC4)cc1 was read as Rango release inh 2% and Rango complex inh -0.3%.
CCOC(=O)/C=c1\s/c(=C\c2ccc(C#N)cc2)c(=O)n1CC(=O)NCc1ccco1 was read as Rango release inh -6%, Rango complex inh -0.4%, GLA inh pH 4.5 5 and miR-21 FLuc -4%.
`CSc1nnc(-c2ccco2)c(-c2ccco2)n1` gave Rango release inh -6%, Rango complex inh inconclusive, GLA inh pH 4.5 -3 and miR-21 FLuc 1%.
Screening COc1c2c(c(C)c3c1C(=O)OC3)O[C@@]1(C)CC[C@@]3(O)C(C)(C)OC(=O)CC[C@]3(C)[C@H]1C2 returned Rango release inh -24%, Rango complex inh -1.1%, GLA inh pH 4.5 -3 and miR-21 FLuc -3%.
Screening CCNc1ccc(C(=O)OCC(=O)NC(C)c2ccccc2)cc1[N+](=O)[O-] (centres undefined) returned Rango release inh 6%, Rango complex inh 2.4%, GLA inh pH 4.5 3 and miR-21 FLuc -9%.
Cn1c(SCC(=O)N2CCCC2=O)nc2ccccc21 was read as Rango release inh -6%, Rango complex inh -1.5%, GLA inh pH 4.5 6 and miR-21 FLuc 0%.
Screening Cc1ccccc1N(Cc1nnc2n1CCCCC2)C(=O)Nc1ccccc1 returned Rango release inh -1%, Rango complex inh -0.8%, GLA inh pH 4.5 -27 and miR-21 FLuc -4%.
For O=C(Nc1ccccc1F)c1ccc2ncsc2c1 the results were Rango release inh 1%, Rango complex inh 0.9% and miR-21 FLuc -62%.
For Cn1c(=O)c2c(nc(NCCCO)n2CCc2ccccc2)n(C)c1=O the results were Rango release inh -12%, Rango complex inh 0.6%, GLA inh pH 4.5 3 and miR-21 FLuc -1%.
Screening Cc1cc(NS(=O)(=O)c2ccc(NC(=O)COc3ccccc3Cl)cc2)no1 returned Rango release inh 1%, Rango complex inh -4.5%, GLA inh pH 4.5 -7 and miR-21 FLuc -13%.
O=C(Nc1ccc(F)cc1)c1ccc2c(=O)n(CC3CCCO3)c(=S)[nH]c2c1 (centres undefined) was read as Rango release inh 0%, Rango complex inh -1.9% and miR-21 FLuc 4%.
Screening CCc1nc2c(nnn2Cc2ccc(F)cc2)c(=O)[nH]1 returned Rango release inh 7%, Rango complex inh -1.9%, GLA inh pH 4.5 2 and miR-21 FLuc -10%.
Cc1ccc(C(=O)N2CCN(S(=O)(=O)c3ccc(C)c([N+](=O)[O-])c3)C2)cc1 was read as Rango release inh -6%, Rango complex inh 3.8%, GLA inh pH 4.5 1 and miR-21 FLuc -4%.
`NCCCC[C@@H](C(=O)NCCCCCCCCCCC(=O)N1CCNCC1)n1cc(CCCC(=O)O)nn1` gave Rango release inh 18% and Rango complex inh -2.5%.
Screening CN(C)c1ccc(Nc2cc(Cl)ncn2)cc1 returned Rango release inh 9%, Rango complex inh 3.8% and miR-21 FLuc -48%.
COc1ccc(S(N)(=O)=O)cc1C(=O)NCCCN1CCN(c2ccc(C)cc2)CC1 was read as Rango release inh 2%, Rango complex inh -1.0%, GLA inh pH 4.5 5 and miR-21 FLuc -4%.
Cc1cn2c(=O)c(C(=O)N3CCN(c4ccccc4)CC3)cnc2s1 was read as Rango release inh -3% and Rango complex inh 9.1%.
COc1ccc2cc(CCNC(=O)c3cc4ccccc4o3)c(=O)[nH]c2c1 was read as Rango release inh 6%, Rango complex inh 0.4% and miR-21 FLuc 10%.
CN(C(=O)c1ccc(NC(=O)Cc2ccccc2)cc1)c1ccccc1 was read as Rango release inh -4% and Rango complex inh -0.8%.
CC(C)(O)C#Cc1ccc([C@@H]2C[C@H]3CN(c4ccccc4)C(=O)[C@]34CCCN24)s1 was read as Rango release inh -13%, Rango complex inh 3.5%, GLA inh pH 4.5 5 and miR-21 FLuc 17%.
`O=C(O)C[C@H]1c2ccc(C(F)(F)F)cc2S(=O)(=O)N1C1CCCCC1` gave Rango release inh 10% and Rango complex inh -3.6%.
Screening O=C(Nc1cc2c(cc1[N+](=O)[O-])OCCO2)c1cccnc1 returned Rango release inh 6% and Rango complex inh 1.9%.
Screening CC(C)n1nnnc1SCC(=O)Nc1ccccc1F returned Rango release inh -22%, Rango complex inh -0.2% and miR-21 FLuc -13%.
`CCCCCC(=O)Nc1cccc(C2=NOC3(C2)C[C@H](C(N)=O)N(C(=O)[C@H]2CCC(=O)N2)C3)c1` (some centres undefined) gave Rango release inh -4%, Rango complex inh 2.7%, GLA inh pH 4.5 4 and miR-21 FLuc 4%.
For O=C(NC(=S)Nc1ccc2oc(=O)ccc2c1)c1cccc(F)c1 the results were Rango release inh -12%, Rango complex inh 0.2% and miR-21 FLuc -3%.
CCOC(=O)c1ccccc1NC(=O)COC(=O)C(Cc1c[nH]c2ccccc12)NC(C)=O (centres undefined) was read as Rango release inh -8% and Rango complex inh 4.3%.
For Fc1ccc2[nH]c3c(NCc4ccccc4)ncnc3c2c1 the results were Rango release inh 2%, Rango complex inh -2.5% and miR-21 FLuc inconclusive.
Screening O=C(Cn1cnc2c(nnn2Cc2ccc(F)cc2)c1=O)Nc1ccccc1 returned Rango release inh 0%, Rango complex inh -4.8%, GLA inh pH 4.5 -9 and miR-21 FLuc 0%.
`NNc1nc2c(F)cc(F)cc2s1` gave Rango release inh -11%, Rango complex inh -2.3%, GLA inh pH 4.5 0 and miR-21 FLuc -45%.
Cc1nn(C)c(C)c1CN(C)C(=O)c1cc2n(n1)C(C(F)(F)F)CC(c1cccs1)N2 (centres undefined) was read as Rango release inh 3%, Rango complex inh 2.2%, GLA inh pH 4.5 -5 and miR-21 FLuc 11%.
`O=S1(=O)[C@H]2C[C@@H]3CC[C@]2(CN1Cc1cccc(F)c1)O3` gave Rango release inh -14%, Rango complex inh -1.1%, GLA inh pH 4.5 -1 and miR-21 FLuc -4%.
Screening COc1cc(C(=O)NNC(=O)c2ccccc2OCc2c(C)noc2C)cc(OC)c1OC returned Rango release inh -6% and Rango complex inh -2.7%.
`COc1cccc(CNC(=O)CCC2CCCN(C(=O)c3ccccc3N(C)C)C2)c1` (centres undefined) gave Rango release inh -1%, Rango complex inh -0.8% and miR-21 FLuc 5%.
Cc1ccc(NC(=O)COC(=O)c2ccccc2-c2nc3ccccc3s2)c(C)c1 was read as Rango release inh 11%, Rango complex inh -0.4%, GLA inh pH 4.5 -2 and miR-21 FLuc -4%.
Cc1ccc(CC2CC(=O)N(Cc3ccco3)C2=O)cc1 (centres undefined) was read as Rango release inh -2%, Rango complex inh -1.3%, GLA inh pH 4.5 4 and miR-21 FLuc -3%.

Compounds shown so far that have a tert-butyl group, in the order listed:
Screening CC(C)(C)C(=O)NCCCc1ccccc1 returned Rango release inh 8%, Rango complex inh -2.9%, GLA inh pH 4.5 -4 and miR-21 FLuc 0%.
`CCOC(=O)c1sc(NC(=O)C(C)(C)C)cc1C` gave Rango release inh 19%, Rango complex inh -1.7%, GLA inh pH 4.5 -7 and miR-21 FLuc -52%.

Back to the main list, starting three compounds before the break.
`COc1cccc(CNC(=O)CCC2CCCN(C(=O)c3ccccc3N(C)C)C2)c1` (centres undefined) gave Rango release inh -1%, Rango complex inh -0.8% and miR-21 FLuc 5%.
Cc1ccc(NC(=O)COC(=O)c2ccccc2-c2nc3ccccc3s2)c(C)c1 was read as Rango release inh 11%, Rango complex inh -0.4%, GLA inh pH 4.5 -2 and miR-21 FLuc -4%.
Cc1ccc(CC2CC(=O)N(Cc3ccco3)C2=O)cc1 (centres undefined) was read as Rango release inh -2%, Rango complex inh -1.3%, GLA inh pH 4.5 4 and miR-21 FLuc -3%.
Screening CCOc1cc(C#N)ccc1OCC(=O)NNC(=O)CC1CCS(=O)(=O)C1 (centres undefined) returned Rango release inh 16% and Rango complex inh -3.6%.
Screening O=C(C[n+]1ccccc1)N/N=C/c1ccccc1F returned Rango release inh inconclusive, Rango complex inh 9.6%, GLA inh pH 4.5 3 and miR-21 FLuc 2%.
`Cc1onc(-c2c(F)cccc2Cl)c1C(=O)NC(=S)Nc1c(C)n(C)n(-c2ccccc2)c1=O` gave Rango release inh -5%, Rango complex inh 3.5%, GLA inh pH 4.5 -4 and miR-21 FLuc 3%.
For Cc1nnc(NC(=O)CSc2ncnc3c2cnn3-c2ccccc2C)s1 the results were Rango release inh -14%, Rango complex inh -1.8%, GLA inh pH 4.5 5 and miR-21 FLuc 1%.
Cc1cc(=O)oc2cc(OCC(=O)NC3CCN(Cc4ccccc4)CC3)c(Cl)cc12 was read as Rango release inh -16%, Rango complex inh -1.3% and miR-21 FLuc 1%.
Screening CN1CCC(=O)N([C@H](CN=[N+]=[N-])c2ccccc2)CC1 returned Rango release inh -12%, Rango complex inh inconclusive and miR-21 FLuc -13%.
For COc1ccc(S(=O)(=O)c2ccccc2)cc1NS(=O)(=O)c1cccc(C(=O)O)c1 the results were Rango release inh 10% and Rango complex inh 4.4%.
Screening Cc1ccc(C)c(C(=O)N(Cc2nc(-c3ccc(Cl)cc3)no2)C(C)C)c1 returned Rango release inh 4%, Rango complex inh -3.4%, GLA inh pH 4.5 -13 and miR-21 FLuc 20%.
Screening O=[N+]([O-])c1ncccc1OCc1ccccc1Br returned Rango release inh 0%, Rango complex inh 0.4% and miR-21 FLuc -20%.
For O=C(COC(=O)c1cc(=O)[nH]c2ccccc12)c1ccc(Br)cc1 the results were Rango release inh 0%, Rango complex inh inconclusive, GLA inh pH 4.5 2 and miR-21 FLuc -4%.
`Cc1[nH]c(=O)[nH]c(=O)c1/C=N/NC(=O)CCCCCNC(=O)OC(C)(C)C` gave Rango release inh -3%, Rango complex inh 6.8%, GLA inh pH 4.5 -4 and miR-21 FLuc -14%.
